High-throughput results (PubChem BioAssay)
RE007 growth inh = qHTS Assay for Inhibitors of the HIV-1 protein Vpr. S. pombe RE007 Vpr strain, BacTiter-Glo ATP luminescence, 24 h; control for the full effect not named in the record. Potency, µM (titrated, usually from 92.2 µM), inactives show at the top dose activity change, negative = less growth. hit rate 0.21% among 360,000; active = well fitted falling curve with a large enough effect; inconclusive = small, poorly fitted or top-dose-only effect; inactive = no such curve, though single readings can be large or run the other way;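 further: on the % scale 0 is the no-effect control and ±100 the full control effect; nearly all actives have a fitted effect of over 50% in size; the assay follows cell death caused by Vpr and the record does not say whether a fall means rescue or toxicity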
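Fission yeast RE007 carrying one integrated HIV-1 vpr copy, seeded at OD 0.01 in PMG+AL medium with 23 nL pinned compound. Grown 24 h at 30 degrees; viability read by BacTiter-Glo luminescence after 5 min.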
Cruzain inh noDet = qHTS Assay for Promiscuous and Specific Inhibitors of Cruzain (without detergent); purified cruzain, Z-FR-AMC fluorescence, no detergent; AID 1476, 2009; Potency, µM, inactives show max response, negative = inhibition, actives largely listed as inhibitors; hit rate 2.3% among 200,000; Cruzipain (Trypanosoma cruzi), P25779; active means well fitted curve in the direction sought with a large enough effect; inconclusive means small, poorly fitted or top-dose-only effect, or another doubt; inactive means no such curve, though single readings can be large; an effect the other way counts as inactive or inconclusive;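 further: plate controls were enzyme without inhibitor for no effect and buffer without enzyme for full effect; nearly all actives have a fitted effect of over 40% in size; top concentration of the series not given in the record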
Target sequence (P25779 123-467 limits assumed): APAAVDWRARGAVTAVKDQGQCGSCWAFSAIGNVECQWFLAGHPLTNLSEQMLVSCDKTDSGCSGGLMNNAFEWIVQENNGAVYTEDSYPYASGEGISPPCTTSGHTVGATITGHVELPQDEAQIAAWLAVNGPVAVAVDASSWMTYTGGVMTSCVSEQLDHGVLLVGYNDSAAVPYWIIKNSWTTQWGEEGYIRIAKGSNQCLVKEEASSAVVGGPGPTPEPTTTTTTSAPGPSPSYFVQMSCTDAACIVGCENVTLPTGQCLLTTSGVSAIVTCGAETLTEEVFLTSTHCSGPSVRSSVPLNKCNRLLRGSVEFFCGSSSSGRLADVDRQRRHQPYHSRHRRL
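Purified cruzain at 1.5 nM, pre-incubated 15 min with compound at room temperature in 100 mM sodium acetate pH 5.5, 5 mM DTT, 0.00005% Triton X-100. Reaction started with 2 uM Z-FR-AMC; AMC fluorescence increase over 60 s gives rate.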
StopGo reporter = High Throughput Screening for Foot and Mouth Disease Virus Antivirals; human cells with a luciferase reporter of 2A StopGo recoding; control for the full effect not named in the record; Potency, µM (highest dose often 57.9 µM), for inactives: at the highest dose signal change, negative = less light; hit rate 1.2% among 410,000; AID 1159524, 2015; active = well fitted falling curve with a large enough effect; inconclusive = small, poorly fitted or top-dose-only effect; inactive = no such curve, though single readings can be large or run the other way; tested in HEK293T cells; further: on the % scale 0 is the no-effect control and ±100 the full control effect; nearly all actives have a fitted effect of over 45% in size; luciferase light after 4 h
NS1 function inh = qHTS Assay for Inhibitors of Influenza NS1 Protein Function | S. cerevisiae slowed by influenza A NS1, growth recovery by OD600 | Potency, µM (titrated, usually from 46.1 µM), for inactives: at the highest dose activity, positive = more growth | hit rate 0.4% among 270,000; further: actives are rising curves; nearly all actives have a fitted effect of over 50% in size
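Growth recovery, yeast-based: influenza A NS1 expressed in S. cerevisiae causes slow growth, and suppressors are detected by OD600. The parent strain without NS1 is used as positive control.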
Marburg entry inh = qHTS for inhibitors of binding or entry into cells for Marburg Virus. Marburg virus pseudotyped entry inhibition, cell reporter; control for the full effect not named in the record; about a third of the inactives were read at about 46 µM. Potency, µM (titrated, usually from 37.8 µM), without a hit: at the top dose activity change, negative = inhibition, actives largely listed as inhibitors. hit rate 1.8% among 300,000. AID 540276, 2011; active = well fitted inhibition curve with a large enough effect; inconclusive = small, poorly fitted or top-dose-only effect, or effect the other way; inactive = flat fitted curve, though single readings scatter; tested in HEK293 cells; about a fifth of its hits are not listed in these tables; further: on the % scale 0 is the no-effect control and ±100 the full control effect; luciferase read-out
LASV entry inh = qHTS for Inhibitors of binding or entry into cells for Lassa Virus; hit rate 1.2% among 300,000; Potency, µM (top dose mostly 37.9 µM), for inactives: top-dose activity change, negative = inhibition, most hits filed as inhibitors; AID 540256, 2011; Lassa virus pseudotype entry inhibition, cell reporter; control for the full effect not named in the record; active means well fitted inhibition curve with a large enough effect; inconclusive means small, poorly fitted or top-dose-only effect, or effect the other way; inactive means flat fitted curve, though single readings scatter; tested in HEK293 cells; further: on the % scale 0 is the no-effect control and ±100 the full control effect; nearly all actives have a fitted effect of over 50% in size; luciferase read-out
Cruzain Triton = qHTS Assay for Promiscuous and Specific Inhibitors of Cruzain (with detergent); Cruzipain (Trypanosoma cruzi), P25779; purified cruzain, Z-FR-AMC fluorescence, 0.01% Triton; Potency, µM, for inactives: max response, negative = inhibition, actives largely listed as inhibitors; hit rate 0.43% among 200,000; AID 1478, 2009; active means well fitted curve in the direction sought with a large enough effect; inconclusive means small, poorly fitted or top-dose-only effect, or another doubt; inactive means no such curve, though single readings can be large; an effect the other way counts as inactive or inconclusive;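 further: plate controls were neutral wells for no effect and buffer without enzyme for full effect; nearly all actives have a fitted effect of over 40% in size; top concentration of the series not given in the record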
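Cysteine protease activity tested under reducing, mildly acidic conditions (100 mM sodium acetate pH 5.5, 5 mM DTT) plus 0.01% Triton X-100. Cruzain 1.5 nM; substrate Z-FR-AMC 2 uM; 15 min compound preincubation at room temperature.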
SARS PLpro yeast = qHTS of Yeast-based Assay for SARS-CoV PLP; Potency, µM (doses to about 32.9 µM), inactives show at the top dose activity, positive = growth rescue; hit rate 0.19% among 330,000; AID 485353, 2010; S. cerevisiae expressing SARS-CoV PLpro, growth rescue; control for the full effect not named in the record; further: 0% is about no effect; nearly all actives have a fitted effect of over 55% in size; growth read by luminescence after 48 h
Active calls of the source: *; ? = inconclusive; . = not tested or not shown; & = joins results of further samples; [ ] = remark or other dose. Unless noted, the call rests on the fitted dose curve; in most records, active means well fitted rising curve with a large enough effect; inconclusive means small, poorly fitted or top-dose-only effect; inactive means no such curve, though single readings can be large or run the other way. Potency means the concentration at half of the fitted maximal effect.

SMILES	RE007 growth inh	Cruzain inh noDet	StopGo reporter	NS1 function inh	Marburg entry inh	LASV entry inh	Cruzain Triton	SARS PLpro yeast
NC(c1ccccc1)c1ccncc1 (stereo not given)	2%	.	-4%	-10%	.	.	.	-7%
OC(CN1CCCCC1)c1ccc2c3c(cccc13)CC2 (stereo not given)	-18%	.	-19%	.	?	0%[46.1 µM]	.	.
CCOC(=O)c1sc(NC(=S)NC(=O)CC(C)C)cc1C	3%	-9%	24%	1%	-19%	-6%	-5.5%	2%
COCC(=O)Nc1ccc2c(c1)OCO2	2%	.	4%	3%	10%[46.1 µM]	?	.	1%
COc1ccc(Cn2nnnc2C(C(C)C)N(Cc2ccco2)Cc2cccs2)cc1 (stereo not given)	2%	-9%	?	13%	?	?	-6.5%	-6%
Cc1ccc(C)c(NC(=O)c2ccc(=O)n(Cc3ccc(F)cc3)c2)c1	.	-2%	-24%	.	.	1%[46.1 µM]	-3.0%	.
COCCN(C(=O)c1ccc(OC2CCN(S(=O)(=O)N(C)C)CC2)cc1)C(C)C	2%	.	-4%	-14%	.	.	.	-3%
O=C(CNS(=O)(=O)/C=C/c1ccccc1)OCC(=O)N1CCC(Cc2ccccc2)CC1	4%	?	11%	6%	?	?	-3.9%	9%
CCOC(=O)CCn1cc(F)c(=O)n(Cc2ccccc2)c1=O	1%	3%	-3%	0%	?	8%	8.8%	-9%
COc1ccc(/C=C/C(=O)NC(=S)NNC(=O)c2ccco2)cc1	8%	-7%	-15%	-9%	?	4.5µM*	-1.8%	-8%
CCCn1nnnc1SCC(=O)NCc1ccccc1	-3%	3%	-2%	3%	5%	10%	6.3%	-4%
CCCn1c(SCC(=O)Nc2ccc(NC(=O)CC)cc2)nc2c1c(=O)n(C)c(=O)n2C	21%	.	-16%	?	6%[46.1 µM]	13%	.	-15%
O=C(NC1=NCCS1)C1CC(=O)N(c2ccc(Cl)cc2)C1 (stereo not given)	0%	.	12%	2%	.	.	.	-1%
Cc1cccc(NC(=O)CSc2nnc(CNC(=O)c3cccc(C)c3)n2-c2ccccc2)c1	.	?	-25%	.	-20%[46.1 µM]	?	-2.0%	.
c1ccc(-c2ccccc2OCCn2cncn2)cc1	-11%	16%	0%	-6%	14%[46.1 µM]	-3%	4.7%	-2%
O=C(NN1C(=O)c2ccccc2C1=O)C1CC2CCC1C2 (stereo not given)	6%	4%	-15%	0%	-7%	?	-1.4%	?
CC(C)C(=O)Nc1cccc(NC(=O)c2ccc(Cl)cc2Cl)c1	6%	-8%	8%	3%	7%	5%	-1.3%	5%
CC(=O)Nc1ccc(Cc2ccncc2)cc1	6%	-2%	14%	1%	10%	6%	4.9%	1%
Cc1cccc(CNC(=O)C2CCC(=O)N(Cc3ccccc3F)C2)n1 (stereo not given)	-11%	.	-7%	5%	-1%	?	.	18%
O=C1CC(SCCO)C(=O)N1c1ccccc1 (stereo not given)	3%	2%	4%	7%	27%	-2%	3.2%	-8%
O=C(CSc1nnc(-c2ccco2)o1)c1ccc(O)cc1O	-19%	.	28%	.	-5%[46.1 µM]	1%[46.1 µM]	.	1%
CC(=O)N/C(=C\c1ccccc1)C(=O)OCC(=O)NC1CCCC1	19%	-6%	3%	0%	11%	4%	-3.0%	9%
COc1ccc(COCC(O)CN(Cc2ccccc2)C(C)C)cc1OC (stereo not given)	-5%	.	7%	.	?	1%	.	1%
CCc1c(C(=O)N2CCCN(C)CC2)csc1C	1%	.	-3%	3%	.	.	.	3%
COc1ccc(C(=O)NC(=S)N2CCOCC2)cc1Br	2%	.	11%	-15%	5%[46.1 µM]	14%[46.1 µM]	.	-2%
CC(=O)c1ccc(-c2nnc(CCC(=O)N(C)Cc3cnc4ccccn34)o2)s1	-7%	.	17%	4%	-3%[46.1 µM]	6%	.	0%
O=S(=O)(NN=C1CCCCC1)c1ccccc1	-20%	.	5%	-1%	?	18%[46.1 µM]	.	0%
O=C(/C=C/c1ccccc1Cl)Nc1ccc(Cl)cn1	-4%	.	47%[activator]	.	11%[46.1 µM]	14%	.	0%
O=C(CSc1nnnn1-c1cccc(F)c1)NC1CCCCC1	-44%	.	6%	.	9%	13%	.	0%
OCC[C@@H]1C[C@H](O)[C@@H](O)[C@]2(CCCc3ccccc3O2)O1	-18%	.	0%	-17%	.	.	.	-1%
C=CCOc1ccccc1CN1CCCCCC1	-20%	.	-17%	8%	-11%	-5%	.	-3%
CCCCCOc1ccc(Cl)cc1CN1CCOCC1	9%	17%	-16%	-9%	30%&30%	0%	4.8%	-2%
Brc1ccc(-c2nc(-c3ccccc3)no2)o1	-28%	-18%	19%	1%	?	?	-2.1%	-3%
O=C(NCCc1ccccc1)c1n[nH]c(=O)c2ccccc12	10%	.	55%[activator]	1%	2%[46.1 µM]	6%	.	1%
CC(=O)c1sc(NC(=O)C2CC(=O)N(Cc3ccco3)C2)nc1-c1ccccc1 (stereo not given)	5%	.	-25%	.	-13%	?	.	-4%
O=C(NNC(=O)c1cc([N+](=O)[O-])ccc1Cl)c1cccs1	-9%	5%	5%	10%	8%[46.1 µM]	8%	2.2%	-3%
Cc1cc(/C=C(\C#N)C(=O)NCc2ccco2)c(C)[nH]1	-11%	-6%	38%[activator]	6%[9.22 µM]	17%	16%	-8.8%	-9%
Cc1c(-c2ccc(Br)cc2)nc2ccccn12	?	-1%	34%[activator]	-22%	?	?	-5.8%	-45%
CCCCc1nnc(NC(=O)C23CC4CC(CC(NC(C)=O)(C4)C2)C3)s1	-11%	.	2%	7%	13%[46.1 µM]	28%[46.1 µM]	.	-7%
CCOc1ccc(NS(=O)(=O)c2ccc3[nH]cc(C(=O)N4CCCC4)c(=O)c3c2)cc1	.	-5%	4%	.	-7%[46.1 µM]	-20%[46.1 µM]	-7.7%	.
Clc1ccc2nc(N3CCNCC3)nc(-c3ccccc3)c2c1	11%	-12%	-25%	9%	?	?	8.3%	-9%
COc1cccc(/C=N/n2c(-c3cc(C)[nH]n3)n[nH]c2=S)c1	1%	.	-17%	5%	-3%[46.1 µM]	-14%	.	-1%
CCCCN1C(=O)C2Cc3c([nH]c4ccccc34)CN2C1=S (stereo not given)	-5%	.	?	.	?	-14%	.	-7%
Cc1nc([N+](=O)[O-])cn1CC(O)c1ccc(Cl)cc1 (stereo not given)	3%	.	-8%	2%	.	.	.	1%
Cc1cccc(-n2c(CNC(=O)c3ccc(S(=O)(=O)N(C)C)cc3)nnc2SCC(=O)Nc2ccc(F)cc2)c1	6%	?	43%[activator]	-19%	28%	?	-3.5%	-10%
CSc1ccccc1C(=O)N1CCN(c2ccc(F)cc2)CC1	-30%	6%	2%	-9%	-2%	-19%	4.3%	-6%
CC1(C)Cc2cccc(Oc3ccc(S(=O)(=O)N4CCCCC4)cn3)c2O1	2%	.	-26%	.	-3%	-25%	.	-1%
CC(=O)c1cccc(NC(=O)c2c(N3CCCC3=O)c3cc(F)ccc3n2C)c1	.	-5%	-2%	.	.	-12%[46.1 µM]	-6.7%	.

Record cards, as listed above. Order of values: RE007 growth inh | Cruzain inh noDet | StopGo reporter | NS1 function inh | Marburg entry inh | LASV entry inh | Cruzain Triton | SARS PLpro yeast
Record of CCCCc1nnc(NC(=O)C23CC4CC(CC(NC(C)=O)(C4)C2)C3)s1 = -11% | . | 2% | 7% | 13%[46.1 µM] | 28%[46.1 µM] | . | -7%
Record of CC(=O)c1cccc(NC(=O)c2c(N3CCCC3=O)c3cc(F)ccc3n2C)c1 = . | -5% | -2% | . | . | -12%[46.1 µM] | -6.7% | .

The results go on:
SMILES	RE007 growth inh	Cruzain inh noDet	StopGo reporter	NS1 function inh	Marburg entry inh	LASV entry inh	Cruzain Triton	SARS PLpro yeast
COc1ccccc1N(CC(=O)Nc1ccc(S(=O)(=O)N2CCOCC2)cc1)S(C)(=O)=O	-10%	.	3%	-6%	?	.	.	3%
CSc1nc(NC(C)C)nc(N2CCOCC2)n1	5%	4%	0%	-1%	-9%[46.1 µM]	1%	4.8%	1%
COc1cc(C(=O)Nc2nc3ccccc3[nH]2)cc(OC)c1OC	-12%	-11%	3%	-17%	1%	11%	-11%	9%
COc1cc(CNCCc2ccc3c(c2)OCO3)ccc1O	-4%	.	-4%	-3%	?	5%	.	6%
COc1ccc(CNC(=O)C(C)N2CCN(c3ccc(C(C)=O)cc3)CC2)cc1 (stereo not given)	-8%	.	2%	12%	-1%[46.1 µM]	-4%[46.1 µM]	.	0%
O=C(OCCOCCN=C1NS(=O)(=O)c2ccccc21)c1ccccc1Br	18%	.	15%	1%	16%[46.1 µM]	-3%[46.1 µM]	.	1%
CC1=C(C(=O)Nc2ccc(C(=O)NC(C)c3ccccc3)cc2)SCCO1 (stereo not given)	14%	.	10%	1%	.	.	.	5%
O=C(C1CCN(S(=O)(=O)c2cccs2)CC1)N1CCc2ccccc2C1	-11%	-3%	-7%	-6%	1%	1%	-2.1%	-1%
Cc1c(C(=O)N2CCCCC2)c(S(=O)(=O)N(C)Cc2ccccc2)c(C)n1C	-6%	.	6%	-13%	.	.	.	-13%
COc1ccccc1N1CCN(C(=O)c2cccc(N3C(=O)NC4CC3(C)Oc3ccccc34)c2)CC1 (stereo not given)	4%	?	-26%	-7%	?	-22%	-2.4%	-2%

Gathered by group: those above containing a nitro group on carbon (two)
SMILES	RE007 growth inh	Cruzain inh noDet	StopGo reporter	NS1 function inh	Marburg entry inh	LASV entry inh	Cruzain Triton	SARS PLpro yeast
O=C(NNC(=O)c1cc([N+](=O)[O-])ccc1Cl)c1cccs1	-9%	5%	5%	10%	8%[46.1 µM]	8%	2.2%	-3%
Cc1nc([N+](=O)[O-])cn1CC(O)c1ccc(Cl)cc1 (stereo not given)	3%	.	-8%	2%	.	.	.	1%

An unsorted share of the library; 4.8% or so of the library scored in one or more.
